Cruzain inh noDet – cruzain (T. cruzi) inhibition without detergent; P25779; purified cruzain, Z-FR-AMC fluorescence, no detergent; Potency, µM, for the others: max response, negative = inhibition, most hits filed as inhibitors; 200,000 tested, 2.3% active; AID 1476; active = well fitted curve in the direction sought with a large enough effect; inconclusive = small, poorly fitted or top-dose-only effect, or another doubt; inactive = no such curve, though single readings can be large; an effect the other way counts as inactive or inconclusive;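 note: plate controls were enzyme without inhibitor for no effect and buffer without enzyme for full effect; nearly all actives have a fitted effect of over 40% in size; top concentration of the series not given in the record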
Target sequence (P25779 123-467 limits assumed): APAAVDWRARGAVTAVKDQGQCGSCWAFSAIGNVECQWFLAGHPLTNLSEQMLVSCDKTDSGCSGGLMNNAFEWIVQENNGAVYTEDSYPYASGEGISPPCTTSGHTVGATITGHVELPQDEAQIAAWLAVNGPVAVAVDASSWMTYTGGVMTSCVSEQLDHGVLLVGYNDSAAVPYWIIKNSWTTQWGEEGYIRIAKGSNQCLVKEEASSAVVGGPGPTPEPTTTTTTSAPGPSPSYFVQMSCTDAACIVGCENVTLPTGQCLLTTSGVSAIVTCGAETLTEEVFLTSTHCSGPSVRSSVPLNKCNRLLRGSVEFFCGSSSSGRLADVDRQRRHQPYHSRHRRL
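Purified cruzain at 1.5 nM, pre-incubated 15 min with compound at room temperature in 100 mM sodium acetate pH 5.5, 5 mM DTT, 0.00005% Triton X-100. Reaction started with 2 uM Z-FR-AMC; AMC fluorescence increase over 60 s gives rate.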
LASV entry inh – Lassa virus entry inhibition | Potency, µM (highest dose often 37.9 µM), for the others: at the top dose activity change, negative = inhibition, most hits filed as inhibitors | 300,000 tested, 1.2% active | Lassa virus pseudotype entry inhibition, cell reporter; control for the full effect not named in the record | AID 540256; active means well fitted inhibition curve with a large enough effect; inconclusive means small, poorly fitted or top-dose-only effect, or effect the other way; inactive means flat fitted curve, though single readings scatter; tested in HEK293 cells; note: % is set by controls: 0 for no effect and ±100 for the full control effect; nearly all actives have a fitted effect of over 50% in size; luciferase read-out
RE007 growth inh – less growth of the S. pombe RE007 Vpr strain; S. pombe RE007 Vpr strain, BacTiter-Glo ATP luminescence, 24 h; control for the full effect not named in the record; Potency, µM (highest dose often 92.2 µM), without a hit: at the top dose activity change, negative = less growth; 360,000 tested, 0.21% active; active = well fitted falling curve with a large enough effect; inconclusive = small, poorly fitted or top-dose-only effect; inactive = no such curve, though single readings can be large or run the other way;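 note: % is set by controls: 0 for no effect and ±100 for the full control effect; nearly all actives have a fitted effect of over 50% in size; the assay follows cell death caused by Vpr and the record does not say whether a fall means rescue or toxicity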
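Fission yeast RE007 carrying one integrated HIV-1 vpr copy, seeded at OD 0.01 in PMG+AL medium with 23 nL pinned compound. Grown 24 h at 30 degrees; viability read by BacTiter-Glo luminescence after 5 min.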
NS1 inh – influenza NS1 inhibition; 270,000 tested, 0.4% active; Potency, µM (top dose mostly 46.1 µM), for inactives: top-dose activity, positive = more growth; S. cerevisiae slowed by influenza A NS1, growth recovery by OD600; note: actives are rising curves; nearly all actives have a fitted effect of over 50% in size
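Growth recovery, yeast-based: influenza A NS1 expressed in S. cerevisiae causes slow growth, and suppressors are detected by OD600. The parent strain without NS1 is used as positive control.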
MARV entry inh – blocks Marburg virus binding to or entry into cells. Marburg virus pseudotyped entry inhibition, cell reporter; control for the full effect not named in the record; about a third of the inactives were read at about 46 µM. Potency, µM (doses to about 37.8 µM), for inactives: at the top dose activity change, negative = inhibition, usual class: inhibitors. 300,000 tested, 1.8% active; active = well fitted inhibition curve with a large enough effect; inconclusive = small, poorly fitted or top-dose-only effect, or effect the other way; inactive = flat fitted curve, though single readings scatter; tested in HEK293 cells; about a fifth of its hits are not listed in these tables; note: % is set by controls: 0 for no effect and ±100 for the full control effect; luciferase read-out
2A StopGo – FMDV 2A StopGo reporter, luciferase signal; human cells with a luciferase reporter of 2A StopGo recoding; control for the full effect not named in the record; 410,000 tested, 1.2% active; AID 1159524; Potency, µM (titrated, usually from 57.9 µM), without a hit: at the top dose signal change, negative = less light; active = well fitted falling curve with a large enough effect; inconclusive = small, poorly fitted or top-dose-only effect; inactive = no such curve, though single readings can be large or run the other way; tested in HEK293T cells; note: % is set by controls: 0 for no effect and ±100 for the full control effect; nearly all actives have a fitted effect of over 45% in size; luciferase light after 4 h
Cruzain inh Det – cruzain (T. cruzi) inhibition with detergent; P25779; purified cruzain, Z-FR-AMC fluorescence, 0.01% Triton; Potency, µM, inactives show max response, negative = inhibition, actives largely listed as inhibitors; 200,000 tested, 0.43% active; AID 1478; active = well fitted curve in the direction sought with a large enough effect; inconclusive = small, poorly fitted or top-dose-only effect, or another doubt; inactive = no such curve, though single readings can be large; an effect the other way counts as inactive or inconclusive;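 note: plate controls were neutral wells for no effect and buffer without enzyme for full effect; nearly all actives have a fitted effect of over 40% in size; top concentration of the series not given in the record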
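In this qHTS format, compounds are incubated with 1.5 nM cruzain for 15 min at room temperature before 2 uM Z-FR-AMC is added. Release of AMC is followed at 360/450 nm, and progress is taken as the 60 s fluorescence difference.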
SARS PLP yeast – SARS-CoV PLP inhibition in yeast. 330,000 tested, 0.19% active. Potency, µM (series often up to 32.9 µM), inactives show at the highest dose activity, positive = growth rescue. S. cerevisiae expressing SARS-CoV PLpro, growth rescue; control for the full effect not named in the record; note: 0% is about no effect; nearly all actives have a fitted effect of over 55% in size; growth read by luminescence after 48 h
Numbers without * were called inactive; ? = inconclusive; · = not tested or not shown; & = joins results of further samples; [ ] = remark or other dose. Unless noted, calls come from the whole dose curve; as a rule, active means well fitted rising curve with a large enough effect; inconclusive means small, poorly fitted or top-dose-only effect; inactive means no such curve, though single readings can be large or run the other way. Potency is the fitted concentration of half-maximal effect.

SMILES	Cruzain inh noDet	LASV entry inh	RE007 growth inh	NS1 inh	MARV entry inh	2A StopGo	Cruzain inh Det	SARS PLP yeast
CCOc1ccc(NC(=O)C2CCCN2C(=O)NC2CCCCC2)cc1 (stereo not drawn)	·	?	0%	4%	2%[46.1 µM]	7%	·	1%
CCOc1ccc(CN2C(=O)c3ccccc3Sc3ccc(C(=O)O)cc32)cc1	?	?	·	·	·	-7%	-0.5%	·
O=C(N/N=C/c1ccc(Cl)cc1Cl)c1cccc(F)c1	-9%	-26%	1%	-7%	?	-30%	-5.9%	-14%
CCOC(=O)c1ccccc1NC(=O)COC(=O)CCC(=O)N1CCOCC1	·	-3%	13%	11%	4%	-8%	·	-1%
Cc1ccc(N(C)S(=O)(=O)c2cccc(C(=O)N(C)Cc3cnn(-c4ccccc4)c3)c2)cc1	·	?	0%	·	?	?	·	0%
CCN1CCN(C(CNS(=O)(=O)c2ccc(Br)cc2)c2cccnc2)CC1 (stereo not drawn)	·	5%	5%	-2%	-14%	3%	·	7%
COc1ccc(CN2CC(=O)N(c3ccc(Cl)cc3)C2=S)cc1OC	·	0%[46.1 µM]	11%	-4%	0%[46.1 µM]	-15%	·	-1%
O=C(NNC(=O)c1ccc([N+](=O)[O-])cc1)c1ccc(F)cc1	·	0%[46.1 µM]	1%	·	3%[46.1 µM]	9%	·	·
Cc1cc(SCC(=O)N/N=C/c2ccccc2C(=O)O)c(C)cc1Br	·	-9%[46.1 µM]	-19%	?	1%[46.1 µM]	-5%	·	-1%
Cc1c(NC(=O)c2ccc(C(=O)Nc3c(C)n(C)n(-c4ccccc4)c3=O)cc2)c(=O)n(-c2ccccc2)n1C	·	·	21%	0%	·	?	·	6%
Cc1ccc(C2c3c(-c4cc(C)ccc4O)n[nH]c3C(=O)N2Cc2ccco2)cc1 (stereo not drawn)	?	?	·	·	?	-10%	-21%	·
Cc1ccc(C(=O)Nc2ccc(C(=O)N/N=C/c3cccnc3)cc2)cc1	·	-1%[46.1 µM]	-12%	7%	-8%[46.1 µM]	-6%	·	2%
OCCC1CN(Cc2ccccc2-c2ccco2)CCN1C1CCCC1 (stereo not drawn)	·	·	7%	10%	·	-22%	·	-4%
COc1ccc(CC2(CCc3ccncc3)C(=O)NC(=O)NC2=O)cc1	·	-11%	8%	-1%	6%[46.1 µM]	-15%	·	-1%
O=C(Cc1ccccc1)N/N=C/c1ccc(OCC(=O)Nc2ccccc2)cc1	-7%	3%	-7%	-1%	2%[46.1 µM]	-16%	-19%	6%
O=C(Cn1cc([N+](=O)[O-])cn1)N1CCN(Cc2ccc3c(c2)OCO3)CC1	·	·	0%	1%	0%[46.1 µM]	-28%	·	0%
Cn1c(Cn2cnc([N+](=O)[O-])n2)nnc1SCC(=O)Nc1cccc(Cl)c1	0%	-7%	1%	-6%	?	10%	-0.9%	-3%
CC(=O)Nc1cc(C(F)(F)F)ccc1Oc1cccc(Br)c1	-7%	-25%	11%	-47%	-27%	?	-3.9%	-21%
Cc1c(NC(=O)c2ccc3c(c2)OCO3)cccc1-c1nc2ccccc2o1	-20%	21µM*	7%	-14%	21µM*	-10%	-7.0%	-3%
Cc1cccc(NC(=O)c2nnn(-c3cccc(C(F)(F)F)c3)c2N)c1	·	18%	-7%	·	6%[46.1 µM]	19%	·	0%
CNS(=O)(=O)c1cccc2nsnc12	1%	17%	13%	-2%	7%&7%	16%	-2.3%	9%
Fc1ccc(-c2nn(-c3ccccc3)cc2CNCc2ccccc2)cc1	·	?	-12%	-2%	?	85%[activator]	·	-1%
C=CCSc1nc2c(c(=O)[nH]c(=O)n2C)n1CC	-2%	-2%	-19%	-8%	7%[46.1 µM]	-19%	4.1%	3%
COc1cc(-n2c(C)nc3cc(C(=O)N4CCOCC4)ccc32)cc(OC)c1OC	2%	17%	-6%	12%	14%	-10%	3.5%	-5%
COc1ccc(CCN(C)c2ccc(C(N)=O)cc2[N+](=O)[O-])cc1OC	·	?	6%	·	2%[46.1 µM]	?	·	-2%
CCCNC(=O)CS(=O)Cc1nc(-c2cccc(OC)c2)oc1C (stereo not drawn)	?	·	4%	?	·	-18%	2.1%	6%
Cc1ccccc1-n1c(-c2ccoc2C)n[nH]c1=S	-3%	18%	-1%	7%	-2%	-4%	0.7%	-6%
Cn1cc([N+](=O)[O-])c(C(=O)Nc2cc(Oc3ccccc3)cc([N+](=O)[O-])c2)n1	2%	?	-7%	-2%	?	?	-10%	-9%
Cc1ccc(C(C)n2cc(C(=O)NCCN3CCN(C)CC3)nn2)cc1 (stereo not drawn)	5%	21%	-1%	-6%	-9%	5%	12%	-5%
CCN1CCN(Cc2cc(Br)cc(Br)c2O)CC1	-18%	-3%	-1%	?	-9%	-12%	1.4%	-6%
Cc1cc2oc3c(c(=O)c2cc1C)C(c1ccc(C(C)C)cc1)N(CCCN1CCOCC1)C3=O (stereo not drawn)	1%	1%	3%	?	?	-24%	6.3%	-6%
CCOc1ccc(C2C(=O)N(C3CCCCC3)CC(=O)N2CC2CCCO2)cc1OC (stereo not drawn)	-5%	26%	-3%	-4%	-8%	0%	-0.4%	1%
COc1ccccc1Oc1ccc(N2CC(C(=O)OCC(=O)c3ccc(F)cc3)CC2=O)cc1 (stereo not drawn)	·	-22%	14%	-6%	-1%	-20%	·	1%
CCN(CC)CCNC(=O)c1ccc(NC(=O)c2ccc(Cl)c(S(=O)(=O)N3CCCCCC3)c2)cc1	·	10%	-6%	5%	?	-29%	·	0%
O=C(CSc1ccccc1)Nc1cccc(NC(=O)c2ccco2)c1	-6%	1%	-25%	-33%	2%	·	-1.8%	-7%
CNC(=O)c1c(NC(=O)c2ccc(S(=O)(=O)N3CC(C)OC(C)C3)cc2)sc2c1CCN(C(C)C)C2 (stereo not drawn)	·	-9%	-10%	-4%	-21%	7%	·	-3%
Cc1c(NC(=O)/C(=C/c2cccs2)NC(=O)c2ccccc2)c(=O)n(-c2ccccc2)n1C	·	4%	10%	·	?	-3%	·	2%
O=C(Nc1ccc(-c2nc3ccccc3o2)c(O)c1)c1cc(Cl)ccc1Cl	12%	30%[46.1 µM]	·	·	·	40%[activator]	-0.4%	·
CCOC(=O)c1cnc(SCC(=O)c2ccc3c(c2)OCCO3)nc1N	-2%	12%	-5%	-31%	18%	·	-1.0%	-3%
COc1ccc2c(CC(=O)OCC(=O)c3ccc(F)cc3)coc2c1	-16%	3%	-5%	6%	-4%[46.1 µM]	17%	0.6%	-3%
Cc1ccc2oc(=O)cc(CN3CCN(C/C=C/c4ccccc4)CC3)c2c1	·	-9%	5%	5%	-15%[46.1 µM]	-15%	·	0%
COc1nc(NC2OC(CO)C(O)C(O)C2O)c(N)c(=O)[nH]1 (stereo not drawn)	·	-1%	-16%	·	11%	-12%	·	·
CSc1ccccc1-c1nnc(-c2ccc(Cl)c(Cl)c2)o1	0%	14%	4%	-3%	?	34%[activator]	-4.3%	1%
COC(=O)c1c(-c2ccc(C)cc2)csc1N	-6%	-2%	-7%	-55%	1%	-20%	-6.0%	0%
CC(C)Oc1ccc(C(=O)N2CCC(c3nc4ccccc4o3)CC2)cc1	13%	3%[46.1 µM]	·	·	10%[46.1 µM]	-18%	-3.8%	·
CCc1cccc(NC(=O)CN(c2ccc(C)cc2)S(=O)(=O)c2cccs2)c1	-13%	-8%[46.1 µM]	·	·	?	-16%	-8.5%	·
COc1ccc(NC(=S)NC(NC(C)=O)C(Cl)(Cl)Cl)c([N+](=O)[O-])c1 (stereo not drawn)	-6%	-22%	0%	10%	-5%[46.1 µM]	0%	-1.9%	4%
CC12CCC(=O)N1C(C(=O)NCCc1ccc(S(N)(=O)=O)cc1)CS2 (stereo not drawn)	·	8%	-15%	7%	14%	0%	·	-3%
CC(C)CC(NC(=O)c1ccc(C#CC(C)(C)O)s1)C(=O)O (stereo not drawn)	·	3%	1%	3%	9%	-17%	·	1%
COc1ccc(C(OC(=O)c2ccco2)C(=O)NC2CCCC2)cc1OC (stereo not drawn)	·	-10%[46.1 µM]	-9%	-5%	0%[46.1 µM]	7%	·	0%

The listing continues.
SMILES	Cruzain inh noDet	LASV entry inh	RE007 growth inh	NS1 inh	MARV entry inh	2A StopGo	Cruzain inh Det	SARS PLP yeast
Cc1nn(Cc2noc(C(=O)NCc3ccccn3)n2)c(C)c1Br	·	-3%[46.1 µM]	-2%	-5%	-1%[46.1 µM]	-12%	·	-8%
CC(=O)C(Cc1ccccc1)NC(=O)COC(=O)c1ccc(-n2cnnn2)cc1 (stereo not drawn)	·	-1%	3%	·	0%	-20%	·	1%
O=C1NC(=O)N(c2ccc3c(c2)OCO3)C(=O)/C1=C/c1cccs1	·	?	14%	·	?	28µM*	·	0%
COc1ccc(N2C(=NC(=O)C3CCCCC3)SC3CS(=O)(=O)CC32)cc1Cl (stereo not drawn)	·	·	3%	13%	·	-3%	·	2%
O=C(COC(=O)c1ccco1)NCCNC(=O)COC(=O)c1ccco1	·	-13%	-17%	10%	12%	-18%	·	4%
COC(=O)c1cc(NC(=O)c2cc3ccccc3o2)cc(C(=O)OC)c1	·	·	-11%	-5%	·	-15%	·	3%
CS(=O)(=O)c1ccc(C(=O)OCC(=O)NC23CC4CC(CC(C4)C2)C3)cc1[N+](=O)[O-]	4%	-8%	-3%	7%	?	35µM*	-0.6%	-13%
CN1C(=O)NC(=O)C1c1ccccc1 (stereo not drawn)	·	0%[46.1 µM]	15%	·	23%[46.1 µM]	2%	·	·
O=C(CCCn1ccc2cc(S(=O)(=O)N3CCCC3)ccc21)NCc1ccc(Cl)cc1	19%	?	·	·	·	?	-7.4%	·
C=CCn1c(SCC(=O)Nc2nc(C)cs2)nnc1C(NC(=O)c1ccccc1)C(C)C (stereo not drawn)	0%	-2%	1%[3.69 µM]	-3%	-16%	-7%	-3.6%	11%
